PD-1 reversal = activators reversing PD-1 mediated T-cell inhibition, primary screen, luminescence, primary human CD4 T cells, PD-L1 beads | CellTiter-Glo 96 h | activation, % (concentration not given with the values) | 29,000 tested, under 10 active | AID 2316, 2010;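 active means replicate mean of 50% or more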;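 further: 0% = median vehicle wells and 100% = positive control; 100 nL library stock added to about 50 µL; numbers are from one replicate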
MITF inhib = inhibitors of MITF, primary screen, MITF inhibitor project, cell-based, luminescence. TRPM1 promoter luciferase, 24 h. inhibition, % (test concentration not listed). 0.28% of 37,000 active;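 active means most replicates at 85% or more, or half of them and the mean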;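 further: human melanocyte line stably carrying TRPM1 promoter luciferase reporter; 0% = vehicle wells and 100% = a positive control; the first replicate is given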
YB-1 expr inh = inhibitors of YB-1 gene expression, primary screen, cell-based, fluorescence | U2OS, qRT-PCR YB-1 vs CDIP delta delta Cp, 16 h; active compounds read high; zero = DMSO, each unit about twofold | 0.37% of 30,000 active | delta delta Cp (YB-1 minus CDIP) (no concentration beside the values);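 active means delta delta Cp rounded down to an integer at or above 3, about 3 SD of DMSO wells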;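 further: higher means less YB-1 transcript or more CDIP transcript relative to DMSO; stock transfer was 100 nL into about 100 µL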
Shh pathway inh = Hedgehog pathway signaling inhibitors, primary screen, luminescence, Shh-LIGHT2 cells, Gli-luciferase; Shh-LIGHT2 Gli-luciferase reporter, 30 h; inhibition, % (no concentration beside the values); 2.1% of 22,000 active;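 active means replicate mean of 65% or more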;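 further: pathway switched on by Shh-conditioned medium diluted 1 in 25 in low serum; 100 nL library stock added to about 40 µL; 0% = median of neutral wells and 100% = positive control level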
* marks the source's active call; other numbers are inactive results; . = no result given. An excerpt, so the mix of outcomes need not match the whole.

Compound | PD-1 reversal | MITF inhib | YB-1 expr inh | Shh pathway inh
C[C@@H]1CCCCO[C@@H](CN(C)C(=O)Nc2ccccc2)[C@@H](C)CN([C@H](C)CO)C(=O)c2cc(NS(C)(=O)=O)ccc2O1 | . | 8.5 | -0.0889 | -24.8
O=S(=O)(NCc1nc(-c2ccccc2)no1)c1ccc(F)cc1 | 0.1 | -8.1 | . | .
CCCC1O[C@@H]2C[C@H]3[C@@H]4CCC5=CC(=O)C=C[C@]5(C)[C@H]4[C@@H](O)C[C@]3(C)[C@]2(C(=O)CO)O1 (some centres not stated) | -5.6 | -17.9 | 0.19 | 52.2
Cc1noc(C)c1NC(=O)N(C)C[C@H]1Oc2ccc(NC(=O)CCN3CCOCC3)cc2C(=O)N([C@@H](C)CO)C[C@H]1C | -1.3 | 0.4 | -0.0349 | -9.0
C[C@H](CO)N1C[C@H](C)[C@H](CN(C)C(=O)NC2CCCCC2)Oc2ccc(NS(=O)(=O)c3cccs3)cc2C1=O | -0.4 | 3.4 | 0.339 | -3.2
C[C@@H]1CN([C@H](C)CO)C(=O)Cc2cc(NC(=O)Nc3cccc4ccccc34)ccc2O[C@@H]1CN(C)C | 0.8 | -7.1 | 0.116 | 24.7
C[C@H]1CN([C@@H](C)CO)C(=O)c2cccc(NC(=O)C3CCOCC3)c2O[C@H]1CN(C)Cc1ccncc1 | 0.5 | 5.2 | 0.362 | -54.2
NS(=O)(=O)c1ccc(NC(=O)CSC2=NCCS2)cc1 | -1.0 | -34.6 | . | .
C[C@@H]1CCCCO[C@H](CN(C)S(C)(=O)=O)[C@@H](C)CN([C@H](C)CO)C(=O)c2cc(NS(=O)(=O)c3ccc(F)cc3)ccc2O1 | . | -2.4 | -0.0843 | -10.1
C[C@@H]1CN([C@@H](C)CO)C(=O)c2cc(NC(=O)NC3CCCCC3)ccc2O[C@H]1CN(C)S(=O)(=O)c1ccccc1 | 0.1 | -6.2 | 0.3 | -5.4
Cc1noc(C)c1S(=O)(=O)Nc1ccc2c(c1)C(=O)N([C@H](C)CO)C[C@H](C)[C@H](CN(C)Cc1ccncc1)OCCCC[C@@H](C)O2 | -0.2 | -9.6 | 0.0217 | 57.2
C[C@@H]1CN([C@@H](C)CO)C(=O)c2cc(NS(=O)(=O)c3cccs3)ccc2O[C@@H]1CN(C)Cc1ccc(C(=O)Nc2ccccc2N)cc1 | -3.1 | 26.5 | -0.521 | .
C[C@@H]1CN([C@@H](C)CO)C(=O)c2cc(NC(=O)Cc3cn(C)c4ccccc34)ccc2O[C@H]1CN(C)C(=O)NC1CCCCC1 | -3.6 | 11.0 | 0.00283 | -10.4
O=C(/C=C/c1ccco1)Nc1cccc(NC(=O)/C=C/c2ccco2)n1 | 0.1 | -18.7 | -0.415 | -0.3
COc1ccc(S(=O)(=O)Nc2cccc3c2O[C@H](CN(C)S(=O)(=O)c2ccc(C)cc2)[C@H](C)CN([C@H](C)CO)C3=O)cc1 | 1.3 | -3.0 | -0.457 | -7.5
C[C@H]1CN([C@@H](C)CO)C(=O)c2cccc(NC(=O)Nc3cccc4ccccc34)c2O[C@H]1CN(C)C(=O)Nc1cccc2ccccc12 | 1.3 | 13.7 | -0.12 | -27.2
C[C@@H]1CN([C@@H](C)CO)C(=O)c2cccc(NC(=O)Nc3ccc4c(c3)OCO4)c2O[C@H]1CN(C)C(=O)NC1CCCCC1 | -0.4 | 1.8 | -0.0398 | 0.1
CNC[C@H]1Oc2ccc(NC(=O)C3CC3)cc2C(=O)N([C@H](C)CO)C[C@@H]1C | 0.4 | -2.5 | -0.179 | -0.9
C[C@@H]1CN([C@@H](C)CO)C(=O)c2cc(NC(=O)Cc3ccccc3)ccc2O[C@H]1CN(C)CC1CC1 | -0.1 | 6.1 | 0.185 | -20.3
Cc1ccccc1-c1nnc(SCC(=O)Nc2sc3c(c2C#N)CCCC3)n1C | 0.6 | 11.7 | . | .
C[C@@H]1CN([C@H](C)CO)C(=O)c2cc(NC(=O)CCC(F)(F)F)ccc2O[C@H]1CN(C)C(=O)Nc1ccccc1 | -0.3 | 0.4 | -0.256 | .
O=C(CSc1nc(N2CCCCC2)nc(N2CCCCC2)n1)NC1CCCCC1 | -1.0 | 22.0 | . | .
Cc1cc(=O)[nH]c(SCCOc2ccc(Br)cc2Cl)n1 | 0.5 | -60.2 | . | .
COc1ccc(NC(=O)Nc2cccc3c2O[C@H](CN(C)Cc2ccc(C(=O)O)cc2)[C@H](C)CN([C@H](C)CO)C3=O)cc1 | 2.8 | -7.1 | 0.463 | 3.2
CC1(C)CC[C@]2(C(=O)O[C@@H]3O[C@H](CO[C@@H]4O[C@H](CO)[C@@H](O)[C@H](O)[C@H]4O)[C@@H](O)[C@H](O[C@@H]4O[C@H](CO)[C@@H](O)[C@H](O)[C@H]4O)[C@H]3O)CC[C@]3(C)C(=CCC4[C@@]5(C)CC[C@H](O)[C@@](C)(C(=O)O)C5CC[C@]43C)C2C1 (some centres not stated) | 3.0 | 10.9 | 0.0653 | -14.1
CCN(CC)C(=O)c1cnn(-c2ccccc2)c1NC(=O)c1ccco1 | -0.1 | 10.1 | -0.343 | -19.7
CC(C)c1ccc(NC(=O)CSc2nnc(-c3ccc(Br)cc3)n2C)cc1 | 1.0 | -10.5 | . | .
Cc1cc(=O)[nH]c(SCC(=O)N2CCCCC2)n1 | 2.1 | -0.2 | . | .
Cc1cc(I)ccc1NC(=O)Cn1nc(C)c([N+](=O)[O-])c1C | -0.1 | 3.2 | . | .
C[C@H](CO)N1C[C@H](C)[C@@H](CN(C)Cc2ccc(C(F)(F)F)cc2)Oc2ccc(NC(=O)Nc3ccc(F)cc3)cc2C1=O | -1.1 | 55.7 | -0.00896 | 29.3
Cc1ccc(N(C(C)C(=O)Nc2cc(Cl)cc(Cl)c2)S(C)(=O)=O)cc1C (configuration not stated) | -5.2 | 10.0 | . | .
C[C@H]1CN([C@@H](C)CO)C(=O)c2cccc(NS(C)(=O)=O)c2O[C@@H]1CN(C)CC1CCCCC1 | 4.0 | -2.1 | -0.272 | -1.6
O=C(CSc1nnc(-c2ccco2)n1-c1cccc2ccccc12)Nc1ccc(C(=O)O)cc1 | 0.3 | 1.8 | . | .
Cc1ccc(S(=O)(=O)Nc2ccc3c(c2)C(=O)N([C@@H](C)CO)C[C@H](C)[C@@H](CN(C)S(=O)(=O)c2cccs2)O3)cc1 | -1.3 | -3.2 | -0.149 | 23.4
C[C@@H]1CN([C@@H](C)CO)C(=O)c2cccc(NC(=O)Nc3ccc(C(F)(F)F)cc3)c2O[C@H]1CN(C)C(=O)Nc1ccccc1 | -2.3 | 10.4 | 0.446 | -36.7
C[C@@H]1CN([C@H](C)CO)C(=O)Cc2cc(NC(=O)CCCCCC(=O)Nc3ccccc3N)ccc2O[C@@H]1CN(C)Cc1ccc(C(F)(F)F)cc1 | -0.9 | -9.4 | -0.423 | .
CN(C(=O)c1cc2nc(-c3ccco3)cc(C(F)(F)F)n2n1)C1CCCCC1 | 2.9 | 1.8 | 0.266 | 7.4
O=S(=O)(NCCOc1ccccc1)c1cccc2cccc(Cl)c12 | 0.4 | 31.1 | . | .
C[C@@H]1CN([C@H](C)CO)C(=O)Cc2cc(NC(=O)Nc3ccc4c(c3)OCO4)ccc2O[C@H]1CN(C)C(=O)Nc1ccc(F)cc1 | . | -1.8 | -0.472 | -13.3
C[C@@H]1CN([C@H](C)CO)C(=O)Cc2cc(NC(=O)Nc3ccc4c(c3)OCO4)ccc2O[C@@H]1CN(C)C(=O)Nc1ccccc1 | -0.9 | 8.2 | -0.388 | .
C[C@@H]1CN([C@H](C)CO)C(=O)Cc2cc(NC(=O)Nc3ccc(F)cc3)ccc2O[C@@H]1CN(C)S(=O)(=O)c1cccs1 | 0.2 | 1.0 | 0.344 | 21.0
C[C@@H]1CN([C@H](C)CO)C(=O)c2cc(NS(=O)(=O)c3ccccc3)ccc2O[C@H]1CN(C)Cc1ccc(C(=O)O)cc1 | -0.5 | 1.2 | . | .
C[C@@H]1CN([C@@H](C)CO)C(=O)Cc2cc(NC(=O)Nc3cccc4ccccc34)ccc2O[C@@H]1CN(C)S(=O)(=O)c1ccccc1 | -2.8 | -3.6 | -0.229 | 9.0
CNc1nc(SCC(N)=O)nc(N2CCOCC2)n1 | 1.2 | 2.8 | . | .
COc1ccc(NC(=O)N(C)C[C@H]2Oc3c(NC(=O)NC4CCCCC4)cccc3C(=O)N([C@H](C)CO)C[C@H]2C)cc1 | 0.0 | 7.7 | 2.19 | -10.0
C[C@H](CO)N1C[C@H](C)[C@@H](CN(C)S(C)(=O)=O)Oc2c(NC(=O)C3CCOCC3)cccc2C1=O | -0.7 | 7.4 | -0.231 | .
COC(=O)c1c(-c2ccccc2)csc1NC(=O)C1CCCCC1C(=O)O (configuration not stated) | -0.2 | -53.3 | . | .
Cc1ccc(NC(=O)Cn2nc(C)c([N+](=O)[O-])c2C)cc1Cl | -0.1 | -1.8 | . | .
C[C@@H]1CCCCO[C@H](CN(C)S(=O)(=O)c2ccc(F)cc2)[C@@H](C)CN([C@H](C)CO)C(=O)c2cc(NS(=O)(=O)c3cn(C)cn3)ccc2O1 | . | -13.1 | 0.0272 | .
Cc1noc(C)c1NC(=O)Nc1cccc2c1O[C@@H](CN(C)C(=O)Nc1ccc(C(F)(F)F)cc1)[C@@H](C)CN([C@H](C)CO)C2=O | -1.8 | 3.7 | -0.338 | -5.3
C[C@H](CO)N1C[C@H](C)[C@H](CN(C)Cc2ccc(Oc3ccccc3)cc2)Oc2ccc(NC(=O)CCCCCC(=O)Nc3ccccc3N)cc2CC1=O | -2.7 | 63.0 | -0.204 | .
CCn1c2ccccc2c2cc(NS(=O)(=O)c3ccccc3)ccc21 | -0.5 | 49.0 | 0.0449 | .
C[C@H](CO)N1C[C@H](C)[C@H](CN(C)Cc2ccc(C(=O)O)cc2)Oc2ccc(NC(=O)Cc3cn(C)c4ccccc34)cc2CC1=O | 0.6 | -7.2 | 0.409 | 15.6
COc1ccc(-c2nnc3c4ccccc4c(C)nn23)cc1S(N)(=O)=O | 0.3 | -65.0 | . | .
C[C@@H]1CN([C@H](C)CO)C(=O)c2cccc(NS(=O)(=O)c3ccc(F)cc3)c2O[C@@H]1CN(C)Cc1ccc(Cl)c(Cl)c1 | -3.1 | -14.8 | 1.02 | 19.7
N#Cc1c(NC(=O)CSc2nnc(N)s2)sc2c1CCCC2 | 0.2 | -39.2 | . | .
C[C@@H]1CN([C@@H](C)CO)C(=O)c2cccc(NC(=O)c3cnccn3)c2O[C@H]1CN(C)Cc1ccc(Oc2ccccc2)cc1 | -4.7 | 16.6 | -0.258 | 31.6
COc1ccc(C)cc1NC(=O)CN(C1CCCCC1)S(=O)(=O)c1ccc(Cl)cc1 | 0.2 | 22.0 | . | .
Cc1ccc(NC(=O)COc2ccc(Br)cc2Cl)c([N+](=O)[O-])c1 | 0.2 | -54.9 | . | .
COc1c(O[C@@H]2O[C@H](CO[C@H]3OC[C@](O)(CO)[C@H]3O)[C@@H](O)[C@H](O)[C@H]2O)cc2occ(-c3ccc(O)cc3)c(=O)c2c1O | 1.2 | -5.3 | 0.0111 | -47.4

New compounds follow
Compound | PD-1 reversal | MITF inhib | YB-1 expr inh | Shh pathway inh
Cc1ccc(S(=O)(=O)N(C)C[C@@H]2Oc3ccc(NC(=O)Nc4ccccc4)cc3C(=O)N([C@H](C)CO)C[C@@H]2C)cc1 | 0.3 | -7.2 | -0.0363 | -25.4
Cc1noc(C)c1S(=O)(=O)N(C)C[C@@H]1Oc2ccc(NS(=O)(=O)c3ccc(F)cc3)cc2C(=O)N([C@@H](C)CO)C[C@@H]1C | -1.2 | -10.0 | 0.221 | -2.8
C[C@H]1CN([C@@H](C)CO)C(=O)c2cccc(NC(=O)NC3CCCCC3)c2O[C@@H]1CN(C)Cc1ccc(Oc2ccccc2)cc1 | . | 32.7 | -0.45 | -1.5
C[C@@H]1CN([C@@H](C)CO)C(=O)c2cccc(NC(=O)CCCCCC(=O)Nc3ccccc3N)c2O[C@@H]1CN(C)Cc1ccc(C(F)(F)F)cc1 | 1.6 | 33.3 | -0.467 | .

Another view of part of the listing above:
Fields: PD-1 reversal, MITF inhib, YB-1 expr inh, Shh pathway inh
> C[C@H](CO)N1C[C@H](C)[C@H](CN(C)Cc2ccc(C(=O)O)cc2)Oc2ccc(NC(=O)Cc3cn(C)c4ccccc34)cc2CC1=O
→ 0.6, -7.2, 0.409, 15.6
> COc1ccc(-c2nnc3c4ccccc4c(C)nn23)cc1S(N)(=O)=O
→ 0.3, -65.0, ., .

Bioassay records: PubChem, Broad Institute
